Compound activity as filed in PubChem.
A1 inh: inhibitors of the anti-apoptotic protein A1, read as caspase activation; MEF A1-2A-BIM cells, Caspase-Glo 3/7 luminescence, 3 h; percent of clofoctol response, vehicle zero; caspase activation, % (concentration not given with the values); hit rate 0.066% among 330,000; AID 2462;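 active = over half of replicate activation scores above 10%, or exactly half above 10 with the replicate mean above 10; inconclusive = replicate mean below 10 yet half the replicates above 10; inactive = over half of replicates below 10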;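 also: wells of about 30 µL received 50 nL stock; many hits fall short of the cut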
LANA-H2B inh: blocks KSHV LANA binding to histone H2A/H2B | inhibition, % (test concentration not listed) | AID 2629 | hit rate 0.6% among 320,000 | Q9QR71 | cell-free LANA-H2A/H2B peptide, fluorescence polarization; in the data active = inhibition mostly above about 10%, no sharp cut-off; inactive = mostly below about 6.7%;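 also: stock transfer was 7.5 nL into about 10 µL; 0% = median of vehicle wells and 100% = median of positive control wells; one replicate is shown; the record names a cut of 25% in any replicate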
Beta apoptosis: beta cell apoptosis inhibition. INS-1E cytokine-induced death, ATP luminescence, 48 h; percent of positive-control rescue, neutral wells zero. protection from apoptosis, % (test concentration not listed). hit rate 0.8% among 300,000. AID 435005;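 active = all replicates at 75% or more, or half of them and the mean; inconclusive = half reach 75% but not the mean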;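 also: 0% = cytokine-treated negative control wells and 100% = positive control rescue; higher means more ATP so stronger rescue from cytokine killing; wells of about 40 µL received 100 nL stock; the first replicate is given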
Ecoli rRNA inh: inhibits bacterial ribosomal RNA function over humanized ribosomes | GFP signal change (wild-type ribosome), % (test concentration not listed) | hit rate 1.6% among 350,000 | AID 720706 | E. coli WT GFP vs humanized-ribosome RFP mutants, fluorescence, 24 h; active compounds read low; DMSO median 0, no signal -100;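 active = significant combined selectivity score with lowered wild-type GFP, culture density cut under 30%, mutant RFP and density less affected; inactive = any of these conditions unmet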; also: one replicate is shown; some compounds called inactive have numbers as strong as hits
Calb FLC: affects C. albicans growth with fluconazole; C. albicans CaCi-2 (fluconazole-resistant clinical isolate) + fluconazole, Alamar Blue growth, 48 h; growth inhibition, % (concentration not given with the values); hit rate 0.57% among 300,000; AID 1979;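 active = most replicates above 75%; inconclusive = exactly half above 75%; inactive = most below 75%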;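 also: all wells also contain fluconazole at 8 µg/ml as a sub-toxic cotreatment; 0% = median of DMSO wells and 100% = median of geldanamycin control wells; wells of about 8 µL received 7.5 nL stock; the first replicate is given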
T cruzi inh: T. cruzi replication inhibition; hit rate 1.4% among 300,000; inhibition, % (test concentration not listed); AID 1885; T. cruzi beta-gal in NIH3T3, luminescence, 90 h;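 active = mean inhibition across valid replicates above about 55%, limit read from the data; inconclusive = mean below that limit but half or more replicates reach it; inactive = mean below it, under half of replicates reach it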;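 also: signal also drops with host cell toxicity which is not excluded here; 0% = plate median of DMSO wells and 100% = zero luminescence signal; higher percent means less beta-gal luminescence so fewer parasites; stock transfer was 50 nL into about 50 µL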
B2AR ag: activates human beta-2 adrenergic receptor causing internalization | AID 504454 | Am2.2-beta2AR cells, FAP receptor internalization, flow cytometry; reference of the scale not given here | response, % (concentration not given with the values) | hit rate 0.43% among 340,000 | P07550;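 active = response above a set limit, near 3 SD of response in nonfluorescent compounds, cut at about 42% in these data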;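 also: stock transfer was 100 nL into about 11 µL; a reference agonist was the positive control; negative values mostly stem from fluorescent compounds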
Target sequence (P07550 whole entry, looked up): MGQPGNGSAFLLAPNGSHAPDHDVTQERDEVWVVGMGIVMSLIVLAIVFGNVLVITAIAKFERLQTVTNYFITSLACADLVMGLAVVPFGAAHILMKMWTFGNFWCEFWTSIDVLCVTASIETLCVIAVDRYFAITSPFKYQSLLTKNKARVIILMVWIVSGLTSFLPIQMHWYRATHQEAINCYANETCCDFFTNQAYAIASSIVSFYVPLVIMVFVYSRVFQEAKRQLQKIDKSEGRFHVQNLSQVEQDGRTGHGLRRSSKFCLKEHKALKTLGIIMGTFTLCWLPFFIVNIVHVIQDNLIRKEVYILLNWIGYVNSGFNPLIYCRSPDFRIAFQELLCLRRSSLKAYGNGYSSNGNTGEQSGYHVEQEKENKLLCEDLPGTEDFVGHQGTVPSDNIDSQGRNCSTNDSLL
ALR H2O2 inh: blocks human ALR sulfhydryl oxidase activity | P55789 | purified ALR, DTT oxidation, H2O2 HRP-luminol luminescence | inhibition, % (test concentration not listed) | hit rate 3.8% among 290,000 | AID 485317;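 active = mean and each replicate at 75% or more; inconclusive = only one of the two met; inactive = neither met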;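 also: stock transfer was 7.5 nL into about 7.5 µL; 0% = neutral wells and 100% = wells with inactivated enzyme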
Target sequence (P55789 whole entry, looked up): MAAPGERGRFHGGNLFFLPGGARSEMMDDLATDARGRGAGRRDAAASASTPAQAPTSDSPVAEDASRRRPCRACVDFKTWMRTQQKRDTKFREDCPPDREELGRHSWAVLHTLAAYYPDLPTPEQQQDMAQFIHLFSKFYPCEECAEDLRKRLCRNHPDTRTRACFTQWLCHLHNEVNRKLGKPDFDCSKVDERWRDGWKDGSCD
Ecoli rRNA inh OD600: recorded beside Ecoli rRNA inh, whose call it bears; OD600 change, %; measured here: OD600 growth;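 optical density of the mix in the first replicate; 0 = DMSO median and -100 = no signal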
Ecoli rRNA inh RFP: recorded beside Ecoli rRNA inh, whose call it bears; RFP signal change, %; measured here: RFP humanized mutant strains;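 first replicate; 0 = DMSO median and -100 = no signal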
Starred values were filed as active, the others as inactive; ? = inconclusive; nt = no result given. Not all compounds are listed; count on the stated rates, not on these rows.

canonical_smiles,Beta apoptosis,Calb FLC,B2AR ag,ALR H2O2 inh,A1 inh,T cruzi inh,LANA-H2B inh,Ecoli rRNA inh OD600,Ecoli rRNA inh RFP,Ecoli rRNA inh
Cc1ccc2cc(CN(Cc3ccccc3)Cc3nnnn3C3CCCC3)c(=O)[nH]c2c1,nt,17.8,-8.7,-0.2,-0.2,51.8,-2.1,-16.9,19.6,-26.2
CN(C(=O)CCc1ccccc1)c1nnc(-c2ccncc2)s1,nt,43.7,-1.5,-5.3,1.4,15.6,-2.6,15.2,0.3,17.1
CNC(=S)N/N=C/c1cc(C)n(-c2ccc(Cl)c(Cl)c2)c1C,5.3,1.4,11.4,8.1,-0.1,12.6,0.7,4.8,3.9,4.6
CNc1c(NS(=O)(=O)c2ccc(C3CCCCC3)cc2)c(=O)oc2ccccc12,-2.4,7.7,2.7,-1.0,-1.0,-27.3,2.8,3.3,-0.5,0.2
CCn1c(=S)[nH]c2cc(C(=O)OC)ccc2c1=O,-8.4,-5.0,9.7,nt,0.2,-2.4,-1.0,nt,nt,nt
COc1ccc(CCNC(=O)c2ccnc(C(C)(C)C)c2)cc1OC,-5.9,-3.2,-0.3,-16.3,0.5,-8.1,7.9,0.0,2.9,-2.8
C=CCn1c2ccccc2c(=O)c2cc(C#Cc3ccccn3)ccc21,8.3,nt,11.0,9.0,-8.7,nt,4.1,-25.6,9.4,-2.7
CCC(=O)C1CCCN(C(=O)c2ccc(OC)c(OC3CCN(C(C)=O)CC3)c2)C1 (centres undefined),-4.2,0.1,-2.3,-5.1,0.0,-3.3,2.9,1.6,0.8,5.2
O=C(N/N=C/c1ccc(C(F)(F)F)cc1)c1ccc(O)cc1,19.6,-11.5,9.1,nt,1.1,6.6,-0.8,-25.1,-2.5,-23.6
CC(=O)Nc1cccc(Oc2ncnc3scc(-c4ccc(C)cc4)c23)c1,9.8,11.7,-9.0,-5.2,0.0,8.2,3.4,nt,nt,nt
CN1c2ccccc2C(C)(C)C12CC(c1cccc(S(=O)(=O)N3CCCC3)c1)=NO2 (centres undefined),37.5,?,2.2,-1.2,0.0,-9.1,10.6,nt,nt,nt
O=C(CN1CCN(Cc2ccc3c(c2)OCO3)CC1)Nc1ccc(N2CCOCC2)cc1,1.3,2.8,-4.8,19.3,0.7,12.4,2.7,14.2,-1.4,8.5
N#CC[C@H](Cc1ccccc1)N1CCN(Cc2ccccc2)CCC1=O,-3.1,-5.7,0.6,nt,-0.2,4.1,3.7,12.8,-3.1,17.3
Cc1cc(O)c(C(=O)/C=C/c2ccccc2Br)c(=O)o1,7.1,20.1,14.1,nt,1.7,9.6,-9.8,-2.8,0.9,-4.3
CC(=O)c1ccccc1NC(=O)CCN1C(=O)C2CCCCC2C1=O (centres undefined),-1.9,nt,5.9,3.9,-0.3,nt,1.6,6.8,-4.1,3.6
COc1cccc(CSc2nnc(CSc3nc4nc(C)cc(C)n4n3)s2)c1,-8.7,-7.1,-4.9,-0.9,0.3,5.8,0.5,-14.4*,-0.6*,-29.1*
COC(=O)/C=C1\SC(=NC(=O)c2cccc(Cl)c2)NC1=O,-0.4,2.0,15.3,nt,0.4,-1.9,nt,0.0,1.2,0.6
COc1cc2cc(C(=O)N(C)Cc3ccccc3)[nH]c2cc1OC,5.0,-1.1,4.7,2.2,0.1,-12.1,0.1,8.1,1.0,12.6
Cc1ccc(C)c(N/C(N)=N/c2nc(C)cc(C)n2)c1,-7.6,13.0,6.9,nt,-1.8,64.7*,1.3,-11.3,3.5,-8.9
CN(c1ccc(C(=O)N2CCCCC2)cc1)S(=O)(=O)c1ccccc1,1.2,0.6,-9.9,0.1,-0.1,18.0,1.5,nt,nt,nt
COc1cc(C(C[N+](=O)[O-])c2c(C)[nH]c3ccccc23)ccc1O (centres undefined),0.8,12.1,8.0,98.8*,0.1,10.8,-5.4,-8.1,6.1,-13.0
c1ccc(CN2CCN(C(c3ccccc3)c3nnnn3Cc3ccccc3)CC2)cc1 (centres undefined),4.8,-5.1,0.0,2.0,-1.1,1.4,-0.5,nt,nt,nt
O=C(CSc1nc2ccccc2[nH]1)N1CCN(S(=O)(=O)c2ccc(Cl)cc2)CC1,-9.2,6.6,-11.4,nt,0.0,11.1,-3.0,nt,nt,nt
Cc1cc(C)nc(SCC(=O)NC2CCCC2)n1,-2.8,-8.1,1.5,-18.2,0.3,-21.5,-0.7,3.3,-1.8,3.0
CCOc1cc(Br)c(C(=O)O)cc1OC,-3.0,3.6,-6.6,0.8,-0.3,-13.9,8.2,nt,nt,nt
Cc1csc(=O)n1CC(=O)OCC(=O)c1c(N)n(CC(C)C)c(=O)n(C)c1=O,-2.0,-2.9,6.2,-7.9,-2.0,9.8,0.7,4.5,-2.4,-2.6
CCCN1CCC(NC(=O)C2CC=CCC2C(=O)O)CC1 (centres undefined),nt,-9.0,-0.7,-9.1,-1.4,-5.0,1.3,12.3,2.8,12.1
Cc1ccc(C(=O)Nc2ccccc2N2CCCC2)s1,-2.2,nt,3.4,nt,-0.8,nt,0.3,7.9,-0.2,6.4
Cc1cc(C(=O)COC(=O)c2nc3nccc(C)n3n2)c(C)n1CC1CCCO1 (centres undefined),nt,-1.0,0.0,-1.7,-0.1,-3.2,8.3,11.8,1.3,12.6
COCc1cc(C)nc2sc(C(=O)Nc3ccc(C(=O)OC)cc3)c(N)c12,-3.0,-0.3,-2.5,-1.2,0.2,12.6,1.9,3.0,-0.9,-0.9
Cc1cccc(NC(=O)c2cc3n(n2)C(C(F)(F)F)CC(C2CC2)N3)c1C (centres undefined),nt,-3.1,-1.4,nt,-1.1,-12.1,-0.7,nt,nt,nt
COC(=O)Cn1c(=NC(=O)c2cc(OC)cc(OC)c2)sc2cc(OC)ccc21,nt,0.9,1.1,-10.0,-0.3,32.7,-1.1,nt,nt,nt
O=C(CSc1nncn1-c1ccccc1F)NC1CCCCC1,-4.9,nt,-2.5,-0.7,0.1,nt,1.0,17.6,-1.3,8.0
COC(=O)c1sccc1NC(=S)N1C(C)CCCC1C (centres undefined),-6.6,-0.3,-8.3,-2.1,-1.0,-6.8,2.7,9.2,-2.8,4.7
Cc1ccccc1NC(=S)NCCc1ccc(S(N)(=O)=O)cc1,-11.2,9.8,1.2,13.7,0.2,-4.3,-5.5,nt,nt,nt
CCOc1ccc(N(CC(=O)Nc2ccc(OC)cc2)S(=O)(=O)c2c(C)noc2C)cc1,-0.6,-3.9,0.1,-31.9,0.1,-6.3,-0.7,8.6,-7.6,0.6
CC(=O)c1ccc2noc(-c3ccc(F)cc3)c2c1,-0.5,1.1,-12.1,3.3,-1.0,9.9,1.2,-2.4,2.5,-9.9
O=C(CSc1nnc(CNC(=O)c2cccs2)o1)NCCc1ccccc1,-6.9,0.6,-2.7,9.3,0.0,4.4,35.6*,nt,nt,nt
COCCNC(=O)Cn1cc(C(=S)N2CCOCC2)c2ccccc21,-4.5,-10.8,2.5,nt,-0.1,-22.7,4.8,2.5,-0.6,-3.0
CSc1ccc(/C=N/NC(=O)c2cccc(O)c2)cc1,7.3,-7.9,-1.2,10.1,-6.5,-8.9,1.7,nt,nt,nt
CSCCC1NC(=O)N(CC(=O)Nc2ccc(-c3ccccc3)cc2)C1=O (centres undefined),-3.6,-18.2,2.9,7.0,-0.6,9.1,-0.8,-7.9,0.2,-3.4
Cc1ccc2c(c1)nnn2C1CCN(CC(=O)Nc2ccccc2N2CCOCC2)CC1,-0.5,7.5,3.1,0.6,-0.8,4.3,2.3,nt,nt,nt
COc1ccc(OCc2nn3c(-c4ccco4)nnc3s2)cc1,-1.5,3.1,-3.0,-1.9,0.0,4.4,-4.3,nt,nt,nt
Cc1ccc2nc(-c3ccc(NC(=O)COC(=O)c4ccco4)cc3)sc2c1,-3.2,1.9,-2.7,nt,-6.8,-5.5,0.0,nt,nt,nt
CCOC(=O)Cn1c(=O)n(Cc2ccc(C)cc2)c(=O)c2cccnc21,1.0,-3.5,-2.0,0.6,0.4,8.7,-9.8,12.2,-2.6,3.8
CC(C)CNC(=O)CSc1ccc(Cl)cc1,2.0,-10.6,-6.4,1.3,-0.6,7.6,-2.9,nt,nt,nt
Cc1onc(-c2ccccc2)c1C(=O)N/N=C/c1cn(C)c2ccccc12,nt,4.8,-5.2,1.4,0.2,35.2,0.6,-12.1,-2.2,-10.9
CCOc1ccc2[nH]c(C(=O)N/N=C/c3cc(OC)c(OC)c(OC)c3)cc2c1,33.3,-3.6,28.9,-15.8,-1.3,-8.9,1.2,-66.7,1.3,-37.0
Cc1ccc(NCc2nnc(SCC(=O)NCc3ccco3)n2CC2CCCO2)cc1Cl (centres undefined),0.9,-1.2,0.1,nt,1.5,-0.4,1.0,nt,nt,nt
Cc1cccc(NC(=O)c2ccc(NCC3CCCO3)c([N+](=O)[O-])c2)n1 (centres undefined),-7.1,-0.3,-12.4,23.5,-1.4,11.6,0.5,-4.0,0.1,-0.1
Nc1ccc2nc(-c3ccc(N)c(Cl)c3)[nH]c2c1,37.5,3.6,23.9,99.0*,-5.6,-45.9,-2.5,nt,nt,nt
COc1ccc(S(=O)(=O)N(CC(=O)NN=C2CCN(C)CC2)c2ccc(C)cc2)cc1OC,-1.6,6.7,-3.0,5.8,0.8,-21.2,2.3,5.7,0.7,6.9
CC(=O)c1ccc(OCCNS(=O)(=O)c2ccc(-n3cnnn3)c(C)c2)cc1,2.8,9.5,6.2,-4.3,-0.9,-37.9,1.1,1.6,0.0,6.4
CCOC(=O)c1c(NC(N)=O)nc2n1CCC2,2.6,-2.7,4.0,-9.7,0.1,-1.2,4.8,1.4,1.5,9.3
Cc1cc(C)c(OCC(=O)Nc2ccccn2)c([N+](=O)[O-])c1,nt,8.3,-2.6,2.6,1.3,2.4,-4.1,nt,nt,nt
COc1cccc(CC(=O)OCC(=O)NC(=O)c2ccc(OC(F)F)cc2)c1,-7.0,5.1,-3.0,-1.2,1.1,-7.6,3.1,1.1,-3.2,5.2
Cc1ccc(NC(=O)N(C)c2ccccc2)cc1,-2.9,1.0,-5.7,2.4,-1.4,-5.4,7.4,16.1,-1.3,10.1
Cc1ccc(CNC(=O)c2ccc(CN3CCOCC3)cc2)cc1,-4.8,-3.0,-0.3,-2.8,0.3,-4.0,5.0,nt,nt,nt
Cc1nn(CCCC(=O)Nc2cc(Oc3ccccc3)cc([N+](=O)[O-])c2)c(C)c1[N+](=O)[O-],7.8,22.7,1.2,-2.9,0.2,42.8,-0.9,nt,nt,nt
CCC1CCC(NC2CCCCNC2=O)CC1 (centres undefined),-8.5,-3.6,1.8,-6.4,-0.2,-7.1,-5.3,nt,nt,nt
FC(F)(F)c1cc(CCN2CCNC[C@H]2Cc2cccc3ccccc23)cc(C(F)(F)F)c1,5.4,2.2,22.2,-28.9,2.1,31.5,2.7,-81.8,-24.5,-54.9
